# High-throughput results from PubChem.
# Mtb growth – Confirmatory growth inhibition assay against Mycobacterium tuberculosis H37Rv, potency (AID 1949) | actives 1.6% (n = 100,000) | most inactive calls were filed without a number and no value below 0 was filed | inhibition, % at 10 µg/mL, or IC50 in µg/mL where a hit was titrated;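 active = confirmed in a dose series; inconclusive = about 50% or more but not retested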;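 note: bacteria grown 7 days with compound before Alamar blue readout; 0% = untreated bacteria and 100% = reference antibiotic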
# * = called active by the depositor; i = inactive; ? = inconclusive. Only part of the results is shown, so the mix of outcomes need not match the whole.
Compound	Mtb growth
CC(Oc1ccc2c(c1)CCC2)C(=O)NNC(=O)NC12CC3CC(CC(C3)C1)C2 (stereo not given)	i
CCC(C)(C)NC(=O)c1cccc(F)c1	2.6%
O=C(Nc1ccc(F)c(Cl)c1)C12CC3CCC(CC(C3)C1)C2	<0.1µg/mL*
O=C(OCc1cccc(F)c1)c1cccc(-c2nnn(Cc3cccc(F)c3)n2)c1	?
CC(C)CC(=O)NC(=S)Nc1ccccc1C(N)=O	i
O=S(=O)(NCCC1=CCCCC1)c1ccc(Cl)cc1	8.7%
CC(C)(C)C(=O)N(Cc1ccccc1)c1ccccn1	0.1%
CS(=O)(=O)N(CC(=O)NCCC1=CCCCC1)c1ccc(F)cc1	i
CC(NS(=O)(=O)c1ccc(OCC(=O)N2CCc3ccccc3C2)cc1)c1ccccc1 (stereo not given)	i
O=C(Nc1nc(-c2ccc(S(=O)(=O)N3CCCC3)cc2)cs1)c1ccccc1Br	4.7%
COc1ccc(N2C(=O)CC(N3CCN(c4ccccc4F)CC3)C2=O)c(OC)c1 (stereo not given)	i
FC(F)(F)c1cccc(OCCCCNC2CCCC2)c1	i
COc1cc(CNC(C)(C)CO)cc(Br)c1OCc1ccccc1	i
COc1ccc(OC(=O)CCCN2C(=O)c3ccccc3C2=O)cc1	i
O=c1c2ccccc2nc2n1CCC2O (stereo not given)	i
CC(C)CCC(CC#N)C1CCOC(C)(C)C1 (stereo not given)	i
CCC(=O)NCCCc1nc2ccccc2[nH]1	i
O=C(COc1cccc([N+](=O)[O-])c1)Nc1ccc(-c2nc3ccccc3[nH]2)cc1	0.1%
CC1CC(C)CN(c2ccc([N+](=O)[O-])cc2-c2nn[nH]n2)C1 (stereo not given)	i
CCC(C)(C)C1CCc2c(sc(NC(=O)c3cccs3)c2C(N)=O)C1 (stereo not given)	i
CCn1c2ccccc2c2cc(NC(=O)C3CCCO3)ccc21 (stereo not given)	4.0%
Fc1ccc(-n2c(C34CC5CC(CC(C5)C3)C4)n[nH]c2=S)cc1Cl	45.4%
CC1=C(C(=O)OC(C)C)C(c2cccs2)N2C(=O)CCSC2=N1 (stereo not given)	0.7%
Cc1ccc(C(=O)Nc2ccc(S(=O)(=O)N(C)C)cc2)cc1Br	i
CC1(C)C(=O)C2(C(=O)NCCc3ccccc3)CCC1C2 (stereo not given)	i
COc1ccc(C)cc1N(CC(=O)Nc1cc(C(F)(F)F)ccc1Cl)S(C)(=O)=O	i
COc1ccc(C)cc1N(CC(=O)N1CCCC1)S(=O)(=O)c1ccc(C)cc1	0.9%
Cc1cc(Cl)ccc1NC(=O)CC(c1ccccc1)c1ccccc1	i
O=C(O)c1cc(S(=O)(=O)N2CCCC2)ccc1F	i
COc1ccccc1CNCc1ccccc1Br	i
COc1ccc(S(=O)(=O)N2CCc3ccccc32)cc1Cl	i
CC(C)Cn1c(Cc2ccccc2)n[nH]c1=S	0.5%
Cc1cccc(NC(=O)C2CCN(S(=O)(=O)c3ccc(F)cc3)CC2)c1	i
COc1cc(/C=C/c2ccc3ccccc3n2)cc(OC)c1OC	47.7%
NS(=O)(=O)c1ccc(NC(=O)COc2ccc(Cl)cc2)cc1	i
Cc1cccc(C(=O)NC(=S)Nc2ccc(N3CCN(C)CC3)cc2)c1	2.0%
CCCC(=O)Nc1ccccc1NC(=O)COc1ccccc1	2.9%
CCC(=O)NC(=S)Nc1ccccc1C#N	i
COc1ccc(Cc2nnc(NC(=O)c3cccc([N+](=O)[O-])c3C)s2)cc1	i
Cc1ccc(CN(c2ccc(C(=O)Nc3ccc(C)cc3C)cc2)S(C)(=O)=O)cc1	7.4%
O=C1CC(C(=O)Nc2ccc(Cl)cc2Cl)N=C(Nc2ccc(Cl)cc2Cl)N1 (stereo not given)	i
CCC(C)C(C(=O)Nc1ccc(I)cc1)N1C(=O)c2ccccc2C1=O (stereo not given)	i
CCCn1c(-c2ccncc2)n[nH]c1=S	i
CCOc1ccc(-c2nc(-c3ccccn3)no2)cc1OCC	3.1%
CCC(C)C(=O)Nc1ccc(-c2nc3ccccc3o2)cc1 (stereo not given)	?
Cc1cccc(CSCCNC(=O)c2ccc(CN3CCOCC3)cc2)c1	i
COC(=O)c1ccc(NC(=O)CN(c2cc(C(F)(F)F)ccc2Cl)S(C)(=O)=O)cc1	0.9%
Cc1cc2c(C)cc(=O)oc2c2c1NCCC2	i
COc1cc2c(cc1NC(=O)CSc1nc3ccccc3[nH]1)oc1ccccc12	?
Cc1nonc1NC(=O)c1ccccc1Br	i
Cc1ccc(OCC(=O)Nc2sc3c(c2C#N)CCC3)cc1C	i
C=CCn1c(SCC(=O)Nc2ccc(OC(F)(F)F)cc2)nnc1-c1ccncc1	i
O=C1CCCc2c1cc(C(=O)Nc1ccccc1F)c(=O)n2-c1ccccc1	i
COc1ccc(NC(=S)N2CCN(c3ccccc3)CC2)c(OC)c1	2.2%
COC(=O)c1ccc(OCC(O)CNC(C)(C)C)cc1 (stereo not given)	i
CCCCC(=O)Nc1cccc(C(=O)OCC)c1	i
Cc1cc(C)nc(NC(=S)Nc2ccc3c(c2)OCO3)c1	i
COc1ccc(N2CCN(C(=O)c3cc(Br)ccc3Cl)CC2)cc1	6.1%
COc1ccc(C(=O)COc2ccc3c(C)c(C)c(=O)oc3c2)cc1	i
C=CCNC(=S)Nc1ccc(-c2ccccc2)cc1	47.1%

# (list continues)
Compound	Mtb growth
CCC(C)c1ccc(OCC(=O)Nc2ccc(I)cc2F)cc1 (stereo not given)	i
Cc1ccc(S(=O)(=O)NCCCN2CCOCC2)cc1C	i
CCOc1cc(C)c(S(=O)(=O)Nc2ccc3cn[nH]c3c2)cc1C	i
N#CC1=C(SCC(=O)Nc2ccc(F)c(F)c2F)NC(=O)CC1c1ccccc1F (stereo not given)	i
COCCSc1nnc(NC(=O)c2c(OC)cccc2OC)s1	i
CCOc1ccc(C(=O)NC(=S)Nc2cc(C(=O)O)ccc2OC)cc1Cl	2.1%
COc1ccc(OC)c(NC(=S)Nc2ccc(Oc3ccccc3)cc2)c1	i
Cc1c(O)ccc2c(=O)c(-c3nc4ccccc4s3)c(C(F)(F)F)oc12	6.4%
CCOc1ccccc1C1CC(=O)Nc2c1ccc(C)c2C (stereo not given)	2.0%
COc1ccc(-c2csc3[nH]c(=S)n(-c4ccccc4)c(=O)c23)cc1	i
CC(C)(C)c1ccc(C(=O)Nc2ccccc2C(=O)NCc2ccco2)cc1	0.3%
Cc1ccc(C(=O)Oc2ccc(C=C3C(=O)NC(=S)NC3=O)cc2)cc1	i
Cc1ccc(NC(=O)c2ccccc2NC(=O)C(C)(C)C)cc1	13.7%
O=C(OCC1CCCO1)c1ccccc1F (stereo not given)	i
Cn1c(=O)c([N+](=O)[O-])c(N2CCN(Cc3ccc(Cl)cc3Cl)CC2)c2ccccc21	?
COc1cc2c(cc1NC(=S)Nc1cccc(C(C)=O)c1)oc1ccccc12	12.6%
O=C(Nc1ccc2ccccc2c1)c1ccc(CN2CCOCC2)cc1	1.3%
O=C(CSCc1c(Cl)cccc1Cl)Nc1nccs1	i
CN(c1ccc(C(=O)NC2CC3CCC2C3)cc1)S(C)(=O)=O (stereo not given)	i
Cc1cc(S(=O)(=O)ON2C(=O)c3cccc4cccc(c34)C2=O)ccc1F	3.6%
CC(C)CC(=O)Nc1cccc(NS(=O)(=O)c2ccc(Cl)cc2)c1	0.0%
Cc1cc(C)cc(C(=O)n2cnnc2N)c1	14.8%
Cc1ccc(NC(=O)CSc2nnc(-c3ccc(Cl)cc3Cl)n2N)c(C)c1	i
Cc1cc(OCC(=O)Nc2c(C)cccc2C)c2c(C)c(C)c(=O)oc2c1	2.5%
O=C(NC(=S)Nc1ncccn1)c1ccc(Cl)cc1	0.8%
CC(C)(C)c1ccc(S(=O)(=O)Nc2ccc(C(=O)Nc3ccncc3)cc2)cc1	?
COC(=O)C1=C(CSCc2ccco2)NC(=O)NC1c1cc(C)ccc1C (stereo not given)	i
CC1CC(C)CN(S(=O)(=O)c2ccc(I)cc2)C1 (stereo not given)	3.0%
O=C1CC(c2cccc(Br)c2)c2cc3c(cc2N1)CCC3 (stereo not given)	i
CC1CCc2nc(NC(=S)NCc3ccco3)sc2C1 (stereo not given)	3.09µg/mL*

# Entries from the list above containing a thiophene ring, fused or not (four):
Compound	Mtb growth
CCC(C)(C)C1CCc2c(sc(NC(=O)c3cccs3)c2C(N)=O)C1 (stereo not given)	i
CC1=C(C(=O)OC(C)C)C(c2cccs2)N2C(=O)CCSC2=N1 (stereo not given)	0.7%
Cc1ccc(OCC(=O)Nc2sc3c(c2C#N)CCC3)cc1C	i
COc1ccc(-c2csc3[nH]c(=S)n(-c4ccccc4)c(=O)c23)cc1	i

# Further records follow.
Compound	Mtb growth
O=C(Nc1cc(C(F)(F)F)ccc1N1CCOCC1)c1sc2c([N+](=O)[O-])cccc2c1Cl	i
CCCN1CCN(CCCNC(=S)Nc2ccc(OC)cc2)CC1	i
CCOc1ccc(NC(=O)[C@H]2CC=CC[C@H]2C(=O)O)cc1	i
Clc1ccc(-c2noc(CN3CCC(Cc4ccccc4)CC3)n2)cc1	i
Cc1c(Cl)cccc1Nc1nc(N)nc(C(F)(F)F)n1	11.7%
C=CCc1cc(OC)ccc1OCCOCCNC(C)CC (stereo not given)	i
COc1ccc(C2=NN(C(=O)c3ccco3)C(c3ccco3)C2)cc1OC (stereo not given)	i
O=C(COc1ccc(NS(=O)(=O)c2cccc3cccc(Cl)c23)cc1)N1CCOCC1	i
COc1cc(NC(=S)NC(=O)c2ccc(C)cc2C)ccc1NC(=O)c1cccs1	i
Cc1ccc(OCC(=O)Nc2ccc(S(=O)(=O)N(C)C)cc2)c(C)c1	i
O=C(CC12CC3CC(CC(C3)C1)C2)NC(=S)Nc1ccc2c(c1)OCCO2	i
O=S(=O)(NCc1cccs1)c1cccc(C(F)(F)F)c1	1.6%
CC1=C(C(=O)Nc2ccccc2)C(c2ccco2)n2ncnc2N1 (stereo not given)	i
COc1ccc(S(=O)(=O)N2Cc3ccccc3CC2C(=O)Nc2c(Cl)cccc2Cl)cc1 (stereo not given)	i
Cc1cccc(CN2CCC(CN)CC2)c1	i
O=C(Oc1ccc(-c2nnco2)cc1)N(c1ccccc1)c1ccccc1	49.7%
CN(C(=O)c1cc2c(=O)n3ccccc3nc2s1)C1CCCCC1	i
CNCc1c(OCc2ccccc2)ccc2ccccc12	2.6%
COC(=O)C1CC(=O)OC12CCCCC2 (stereo not given)	6.3%
O=C(O)c1c[nH]c2ccc(Br)cc2c1=O	i
Cc1cccc(NCCNc2cccc(C)c2)c1	5.7%
Cc1cc(C)cc(NC(=S)NC(=O)COc2cccc(C)c2)c1	i
O=C(Cc1c(F)cccc1Cl)NNC(=O)Nc1ccc2c(c1)OCO2	i
Cc1cccc(C(=S)N2CCN(c3ccc(F)cc3)CC2)c1	i
CCOC(=O)Cn1cnc2scc(-c3ccccc3)c2c1=O	i
O=C(CCC1CCCC1)Nc1ccc(Cl)cc1	i
Cc1cc(C)c(S(=O)(=O)N2CCCCC2C)cc1C (stereo not given)	i
Cc1c(Br)cc(C(=O)N2CCCC2)c(C)c1C	i
CC(C)(C)c1ccc(C(=O)NCC(=O)Nc2ccccc2)cc1	i
Cc1cnn(C(=O)C2(C)CC2(Cl)Cl)c1 (stereo not given)	i

# Four entries from above in another layout.
Cc1cccc(C(=S)N2CCN(c3ccc(F)cc3)CC2)c1
- Mtb growth = i
CCOC(=O)Cn1cnc2scc(-c3ccccc3)c2c1=O
- Mtb growth = i
O=C(CCC1CCCC1)Nc1ccc(Cl)cc1
- Mtb growth = i
Cc1cc(C)c(S(=O)(=O)N2CCCCC2C)cc1C (stereo not given)
- Mtb growth = i

# (continued)
Compound	Mtb growth
Cc1ccc(OC(=O)CCc2ccccc2)cc1C	i
CCCOc1ccc(N2C(=O)CC(NCc3ccco3)C2=O)cc1 (stereo not given)	i
O=C(NCc1ccc(F)cc1)Nc1ccc(Cl)cc1	i
C=CCn1c(SCC(=O)c2ccc(F)cc2)nnc1-c1cccc(Cl)c1	0.0%
O=C(Nc1sc2c(c1C(=O)O)CCCCC2)c1ccco1	i
COc1ccc(Cl)cc1C(=O)O/N=C(\N)c1ccccc1C	i
CCn1c(SCCc2ccccc2)nnc1-c1nnc(SCCc2ccccc2)n1CC	i
CC12CCC(C(=O)N3CCCCC3)(CC1=O)C2(C)C (stereo not given)	1.0%
Cc1sc(NC(=O)CSc2nnc(Cc3ccccc3)n2C)nc1-c1ccccc1	i
O=C1CC(c2ccc(Cl)cc2)CC2=C1C(c1cc3c(cc1Br)OCO3)Nc1ccccc1N2 (stereo not given)	41.8%
O=C(Nc1ccc(Cl)cc1)Nc1ccc(S(=O)(=O)NCCc2ccccc2)cc1	i
COc1ccc(CC(=O)Nc2cccc(C)c2C)cc1OC	i
CC(=O)CC(=O)Nc1ccc(Nc2ccccc2)cc1	i
O=C(COc1cccc(Cl)c1)Nc1ccccc1[N+](=O)[O-]	1.5%
Cc1ccc(Cl)cc1N(CC(=O)Nc1ccccc1C(=O)NC(C)c1ccccc1)S(C)(=O)=O (stereo not given)	i
CCOC(=O)Cc1csc(NS(=O)(=O)Cc2ccccc2)n1	3.5%
CC(C)NCCOCCOc1ccc(I)cc1	i
CCOc1ccccc1NC(=O)C(=O)NC(C)CC (stereo not given)	i
COc1ccccc1NC(=O)c1ccc(NC(=O)c2ccccc2Cl)cc1	i
COc1cc(SC)ccc1C(=O)Nc1ccc(S(=O)(=O)N2CCC(C)CC2)cc1	i
Cc1ccc(-c2cc(-c3ccccc3Cl)c(C#N)c(N)n2)o1	i
